Vif TR-FRET: inhibitors of Vif binding to APOBEC3G peptide, primary screen, biochemical, TR-FRET, GST-Vif 1-94, biotin-A3G peptide, dose response retest (AID 1117319); TR-FRET GST-Vif / biotin-A3G peptide binding; higher % means a stronger effect; test concentration not given here; strong numbers were not always called active; one-dose inhibition, %; IC50 in µM for titrated hits; hit rate 0.57% among 260,000;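 active = above the screen mean plus three standard deviations and confirmed in dose response; inconclusive = results disagree or hit not tested in dose response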;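 note: Vif residues 1-94 fused to GST binding biotinylated APOBEC3G peptide 110-148; 0% = full assay without inhibitor and 100% = GST in place of GST-Vif; retest series ran down from 100 µM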
LANA-H2B inh: blocks KSHV LANA binding to histone H2A/H2B; inhibition, % (test concentration not listed); cell-free LANA-H2A/H2B peptide, fluorescence polarization; AID 2629; hit rate 0.6% among 320,000; Q9QR71; in the data active = inhibition mostly above about 10%, no sharp cut-off; inactive = mostly below about 6.7%;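 note: stock transfer was 7.5 nL into about 10 µL; 0% = median of vehicle wells and 100% = median of positive control wells; one replicate is shown; the record names a cut of 25% in any replicate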
Target sequence (Q9QR71 whole entry, looked up): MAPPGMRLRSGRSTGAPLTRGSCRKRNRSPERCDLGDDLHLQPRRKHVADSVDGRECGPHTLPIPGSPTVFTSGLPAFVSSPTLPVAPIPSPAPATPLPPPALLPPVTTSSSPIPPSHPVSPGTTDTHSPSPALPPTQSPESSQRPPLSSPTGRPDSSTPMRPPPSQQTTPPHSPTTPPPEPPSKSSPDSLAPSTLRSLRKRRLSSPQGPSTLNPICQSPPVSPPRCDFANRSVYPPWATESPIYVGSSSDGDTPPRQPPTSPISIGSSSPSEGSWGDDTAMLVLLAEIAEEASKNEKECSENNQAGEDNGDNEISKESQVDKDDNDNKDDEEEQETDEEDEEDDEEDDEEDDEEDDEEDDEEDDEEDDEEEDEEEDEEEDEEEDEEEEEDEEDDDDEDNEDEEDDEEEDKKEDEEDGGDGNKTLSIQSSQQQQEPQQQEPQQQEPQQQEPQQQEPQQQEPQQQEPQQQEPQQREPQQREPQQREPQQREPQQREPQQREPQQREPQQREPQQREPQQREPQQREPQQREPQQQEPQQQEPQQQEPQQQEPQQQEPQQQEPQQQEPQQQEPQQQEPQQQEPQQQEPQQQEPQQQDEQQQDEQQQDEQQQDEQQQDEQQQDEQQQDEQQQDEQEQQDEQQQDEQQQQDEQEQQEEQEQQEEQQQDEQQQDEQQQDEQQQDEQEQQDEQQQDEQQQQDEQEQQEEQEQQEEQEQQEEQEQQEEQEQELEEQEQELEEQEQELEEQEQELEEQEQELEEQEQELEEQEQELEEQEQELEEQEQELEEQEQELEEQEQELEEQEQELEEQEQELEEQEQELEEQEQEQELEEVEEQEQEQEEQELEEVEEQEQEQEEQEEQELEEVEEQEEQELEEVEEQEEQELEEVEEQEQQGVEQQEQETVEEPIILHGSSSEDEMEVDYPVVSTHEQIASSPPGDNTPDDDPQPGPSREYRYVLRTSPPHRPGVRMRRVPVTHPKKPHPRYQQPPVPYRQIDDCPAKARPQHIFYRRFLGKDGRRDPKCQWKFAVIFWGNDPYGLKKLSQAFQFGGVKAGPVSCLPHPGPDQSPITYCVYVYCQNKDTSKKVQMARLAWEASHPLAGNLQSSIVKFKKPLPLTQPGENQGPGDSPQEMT
RanGTP-Impb inh: disruptors of Ran-importin-beta complex formation – biochemical, FRET, CFP-Ran, YFP-importin-beta, homogeneous, primary screen | hit rate 1.1% among 300,000 | inhibition, % (no concentration beside the values) | cell-free CFP-Ran/YFP-importin-beta FRET ratio;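 active = most replicates above 15%; inconclusive = exactly half above 15%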;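 note: 0% = DMSO wells and 100% = Ran loaded with GDP instead of GTP; wells of about 40 µL received 100 nL stock; the first replicate is given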
Beta2AR agonist: activates human beta-2 adrenergic receptor causing internalization | response, % (concentration not given with the values) | hit rate 0.43% among 340,000 | Am2.2-beta2AR cells, FAP receptor internalization, flow cytometry; reference of the scale not given here | P07550;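 active = response above a set limit, near 3 SD of response in nonfluorescent compounds, cut at about 42% in these data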;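 note: stock transfer was 100 nL into about 11 µL; a reference agonist was the positive control; negative values mostly stem from fluorescent compounds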
HNF4A DNA FP: change in binding of human HNF4 alpha to DNA. P41235. HNF4a-FITC DNA binding, fluorescence polarization, 1 h. activity change, % at 10 µM. hit rate 0.3% among 360,000. AID 1224865; in the data active = activity change above about 30%, passing the limit was not always enough;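 note: controls were the assay level and a saturating level of protein; the project sought stronger binding though the title names inhibitors; some compounds called inactive have numbers as strong as hits; positive values seem to mean higher polarization but the record does not say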
ALR H2O2 inh: inhibitors of human sulfhydryl oxidase ALR; P55789; hit rate 3.8% among 290,000; purified ALR, DTT oxidation, H2O2 HRP-luminol luminescence; inhibition, % (concentration not given with the values); AID 485317;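 active = mean and each replicate at 75% or more; inconclusive = only one of the two met; inactive = neither met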;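 note: stock transfer was 7.5 nL into about 7.5 µL; 0% = neutral wells and 100% = wells with inactivated enzyme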
Calb FLC: C. albicans growth modulation with fluconazole. hit rate 0.57% among 300,000. C. albicans CaCi-2 (fluconazole-resistant clinical isolate) + fluconazole, Alamar Blue growth, 48 h. growth inhibition, % (test concentration not listed). AID 1979;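 active = most replicates above 75%; inconclusive = exactly half above 75%; inactive = most below 75%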;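 note: all wells also contain fluconazole at 8 µg/ml as a sub-toxic cotreatment; 0% = median of DMSO wells and 100% = median of geldanamycin control wells; wells of about 8 µL received 7.5 nL stock; the first replicate is given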
* hit, by the source's call; u = inconclusive; x = not tested or not shown.

SMILES	Vif TR-FRET	LANA-H2B inh	RanGTP-Impb inh	Beta2AR agonist	HNF4A DNA FP	ALR H2O2 inh	Calb FLC
COc1ccc(C(=O)C(Cc2cc(C(C)=O)ccc2OC)N2CCCC2)cc1 (configuration not stated)	u	-4.4	8.2	1.0	1.4	-5.8	1.2
Cc1cc(C)n2nc(SC(C)C(=O)N3CC(C)OC(C)C3)nc2n1 (configuration not stated)	3.1%	1.1	x	8.4	5.8	-5.3	x
CC(=O)N1CCC2(CC1)CC(=O)c1cc(OCC(=O)NCc3ccco3)ccc1O2	2.2%	10.9	-1.0	-12.0	3.7	0.9	38.9
COc1ccc(C(C)(C)C)cc1NC(=O)CSc1ncn[nH]1	-3.5%	x	x	-0.2	-0.5	x	x
COc1cccc(NC(=O)COc2cccc(-n3cnnn3)c2)c1	u	3.1	-2.9	-5.3	2.5	x	-5.5
CCN(c1cccc(C)c1)S(=O)(=O)c1ccc2c(c1)oc(=O)n2C	1.6%	-2.6	-1.5	-3.2	0.9	-10.4	3.8
Cc1ccc(C(C)C)c(OCc2ccc(C(=O)N/N=C/c3ccc(O)c(O)c3)cc2)c1	u	-2.6	-0.5	12.1	0.8	97.4*	-4.1
CC(=O)Nc1ccc(S(=O)(=O)NCCc2ccccn2)cc1	30.3%	-4.5	0.7	-0.9	2.3	x	-24.0
COC(=O)[C@@]1(Cc2ccc(OC)cc2)[C@H]2c3cc(C(=O)N(C)C)n(C[C@H](O)CO)c3C[C@H]2CN1C(=O)c1ccccc1	>100µM*	-1.9	x	x	x	1.0	x
CCCCn1c(N)c(N(CCOC)C(=O)CSCc2cccc(C)c2)c(=O)[nH]c1=O	-3.1%	3.2	3.2	-3.2	-4.1	-6.4	-6.1
Cc1ccnc(N2CCC(C(=O)Nc3ccc(Oc4ccccc4)cc3)CC2)n1	2.8%	-1.2	-0.6	-3.9	1.0	-4.6	-18.2
COc1cccc(/C=N/NC(=S)NCc2ccco2)c1OC	-4.0%	-2.3	-1.1	-4.2	-1.1	0.9	-3.1

Copied from the entries so far for reference:
SMILES	Vif TR-FRET	LANA-H2B inh	RanGTP-Impb inh	Beta2AR agonist	HNF4A DNA FP	ALR H2O2 inh	Calb FLC
COc1ccc(C(=O)C(Cc2cc(C(C)=O)ccc2OC)N2CCCC2)cc1 (configuration not stated)	u	-4.4	8.2	1.0	1.4	-5.8	1.2
Cc1cc(C)n2nc(SC(C)C(=O)N3CC(C)OC(C)C3)nc2n1 (configuration not stated)	3.1%	1.1	x	8.4	5.8	-5.3	x

(continued)
SMILES	Vif TR-FRET	LANA-H2B inh	RanGTP-Impb inh	Beta2AR agonist	HNF4A DNA FP	ALR H2O2 inh	Calb FLC
CC(C)=C(NC(=O)c1ccccc1)C(=O)N/N=C(\C)c1ccccc1O	x	0.4	0.0	-5.4	4.0	4.8	-10.5
O=C(/C=C/c1ccccc1)NCc1ccco1	15.5%	-1.7	0.1	-0.8	2.4	0.9	-4.4
Cc1ccsc1CNS(=O)(=O)c1ccc(F)cc1	x	3.6	5.3	-2.3	-0.1	-3.4	-6.2
O=C(NN1C(=O)c2cc(Br)ccc2NC1c1cc(Br)cc(Br)c1O)c1ccncc1 (configuration not stated)	x	-3.2	-8.8	3.2	-0.4	10.0	1.0
Cc1ccc(-n2c(=O)c(C#N)cc3c(=O)n4ccccc4nc32)cc1C	-2.5%	-1.4	28.0*	2.4	-1.9	-3.0	-6.0
Cc1ccc(-c2cc(C(=O)N3CCCC(C(F)(F)F)C3)c3ccccc3n2)o1 (configuration not stated)	-11.5%	2.2	3.5	5.6	5.5	3.3	0.3
CCOc1ccc(CCNC(=O)c2ccc(=O)[nH]c2)cc1OCC	-3.0%	2.5	4.2	0.5	0.8	-6.1	-0.8
O=C(O)c1ccc(N/N=C/c2ccnc3ccccc23)cc1	13.7%	2.9	-2.8	11.7	0.8	2.0	-2.4
COC(=O)C1C(c2ccccc2)C(C(=O)O)C1c1ccccc1 (configuration not stated)	x	0.1	-2.6	-7.3	-5.1	-3.5	0.1
O=C(CCn1nc(-c2ccc(Cl)cc2)ccc1=O)N1CCN(c2ccccc2)CC1	3.5%	5.2	u	-0.8	-3.0	4.9	21.0
N#CCCn1cc(/C=N/NC(N)=S)c(-c2ccc(Br)cc2)n1	8.0%	-3.1	-1.5	-4.6	0.9	15.5	-13.9
CCc1ccc(OCc2nnc(SCCN3CCOCC3)n2CC)cc1	-0.7%	0.2	3.1	3.1	2.1	-14.6	-11.3
CN(Cc1ccco1)S(=O)(=O)c1nnc(NC(=O)c2ccccc2)s1	13.9%	0.1	0.9	-1.9	-1.6	28.9	7.5
CCN(Cc1ccc(N(C)C)cc1)C(C)C(=O)Nc1ccc(S(=O)(=O)N2CCCC2)cc1 (configuration not stated)	2.2%	-79.9	x	28.3	-2.5	35.6	x
CC(=O)SC(C[N+](=O)[O-])c1cn(C(C)=O)c2ccccc12 (configuration not stated)	5.5%	4.9	-0.9	49.0*	2.2	100.1*	111.6*
O=C(CNC(=O)c1cccs1)N/N=C/c1ccc(Cl)cc1	x	2.4	6.4	0.5	0.9	-0.4	2.2
Cc1ccc(S(=O)(=O)CCC(=O)N2CCN(c3ccc(Cl)cc3)CC2)cc1	20.2%	3.8	3.2	1.8	1.1	42.4	-1.9
CC(=O)Nc1ccc(C(=O)OC2CCOC2=O)cc1 (configuration not stated)	5.2%	-1.0	0.6	2.2	3.1	x	2.3
CC(c1nccs1)N(C)c1nc2nonc2nc1N(C)C (configuration not stated)	3.3%	-0.3	8.7	2.5	-0.3	-38.5	-0.3
C=CCNC(=S)NCc1cccnc1	4.5%	-4.8	-1.9	2.2	-1.9	x	-8.2
Cc1ccc(SCC(=O)OC(C)C(=O)NCc2ccccc2)cc1 (configuration not stated)	-2.9%	x	7.2	0.5	1.7	x	0.3
Cc1[nH]nc(C(=O)NN=Cc2ccccc2Cl)c1N=NN(C)C	-0.3%	x	x	-2.8	1.2	x	x
CC(C)(C)c1cc(Br)ccc1OCC(=O)Nc1ncn[nH]1	7.2%	3.9	1.4	-2.4	-1.5	2.5	-1.9
Cc1cc(S(=O)(=O)N2CCOCC2)ccc1F	-4.2%	3.5	0.4	3.0	4.3	x	-21.1
O=C(CCN=C1NS(=O)(=O)c2ccccc21)Nc1ccc(F)cc1Cl	x	-1.5	x	1.5	-1.9	0.9	x
COc1ccc(/C=C(/NC(=O)c2ccco2)C(=O)NCc2ccco2)cc1OC	6.4%	-5.9	4.3	-2.5	0.4	-7.3	1.1
Cc1ccc(-c2nnc(-c3ccc4ccccc4c3)o2)cc1	-6.0%	x	x	-11.7	5.5	x	x
O=C(CSc1nc(=O)n2ccccc2n1)NCc1ccc2c(c1)OCO2	-7.2%	-2.9	-0.6	-4.5	-0.2	-10.6	2.0
COc1ccc(C(C)=O)cc1COC(=O)CCNS(=O)(=O)c1ccc(C(C)=O)cc1	x	-2.5	-1.6	1.2	1.8	1.5	-3.1
Cc1cc(N2O[C@H]3C=C[C@@H]2C3)no1	-0.2%	x	x	-2.2	2.7	x	x
CCOCCCNC(=O)c1ccc2c(c1)ncn2-c1ccccc1OC	-3.5%	0.5	-1.9	-5.6	1.4	-6.4	-6.6
O=C(c1cccs1)N(CCN1CCCCC1)CC1CCCN(C2CCCC2)C1 (configuration not stated)	x	-1.3	1.2	0.8	-1.6	1.3	-1.4
O=C(CSc1ccccc1)N1CCN(c2ccccc2)CC1	67.4µM*	-4.4	-0.9	-0.6	-0.9	10.6	1.8
COc1cccc(N=Nc2ccc(O)c3ncccc23)c1	x	5.6	-3.3	8.9	4.2	-18.4	101.2*
O=C(c1cccc(F)c1)N1CCCC(C(=O)N2CCCCCC2)C1 (configuration not stated)	-4.1%	4.4	0.9	-3.2	-0.6	-6.9	-5.2
COc1ccc2c(c1)C(C)=CC(C)(C)N2C(=O)CNCc1ccc2c(c1)OCO2	8.7%	2.1	-1.8	39.5	-1.5	-11.5	-26.1
O=C(NNc1ccccc1C(F)(F)F)c1cccs1	-2.1%	-8.4	-3.1	-1.8	3.2	-13.6	-11.6
CCN1CCc2c(sc(NC(=S)NC(=O)c3ccco3)c2C(N)=O)C1	-52.5%	4.1	163.2*	-21.9	12.3	-21.1	-2.0
Nc1nnc(SC2CC(=O)N(c3ccccc3)C2=O)s1 (configuration not stated)	1.8%	-0.1	5.1	-7.1	-0.3	25.2	-2.1
O=C(c1cc(Cl)nc2ccccc12)N1CCCCC1	7.5%	-1.2	1.1	-1.0	-4.6	-3.1	3.3
CC1(C)CC(NC(=O)COc2ccc(Cl)cc2Cl)CC(C)(C)N1	-4.1%	-3.0	4.0	-11.3	-2.9	-10.2	-2.4
CCc1ccc(C(=O)NNc2ccc(F)cc2)cc1	-7.9%	-4.0	6.4	-3.3	-3.5	-6.9	79.8*
CN(C)c1c([N+](=O)[O-])cc(N2C(=O)C=CC2=O)cc1[N+](=O)[O-]	14.8%	x	x	5.8	3.0	x	x
CNS(=O)(=O)c1cccc(C(=O)OCC(=O)c2ccc3c(c2)OCCO3)c1	5.4%	x	x	10.1	1.7	x	x
CN(CC(=O)Nc1cccc(F)c1)C(=O)/C=C/c1cn(Cc2ccccc2)nc1-c1cccnc1	2.5%	-0.2	-1.1	9.1	10.4	-3.6	-2.3
Cc1cccc(C(C)C)c1NC(=O)COC(=O)CN1C(=O)C2CC=CCC2C1=O (configuration not stated)	-3.5%	-2.1	-1.1	-11.7	-0.6	x	1.9
COCCn1c(N)c(N(Cc2ccccc2)C(=O)c2oc3ccccc3c2C)c(=O)[nH]c1=O	-8.2%	-1.6	2.3	0.5	-3.0	-24.2	9.8
COCCNC(=O)C(c1cccc(OC)c1)N(C(=O)Cn1nnc2ccccc21)c1cccnc1 (configuration not stated)	-3.7%	2.5	-1.8	-3.2	-0.1	0.0	1.7

Filtered by structure: the entries above containing a furan ring, fused or not
SMILES	Vif TR-FRET	LANA-H2B inh	RanGTP-Impb inh	Beta2AR agonist	HNF4A DNA FP	ALR H2O2 inh	Calb FLC
CC(=O)N1CCC2(CC1)CC(=O)c1cc(OCC(=O)NCc3ccco3)ccc1O2	2.2%	10.9	-1.0	-12.0	3.7	0.9	38.9
COc1cccc(/C=N/NC(=S)NCc2ccco2)c1OC	-4.0%	-2.3	-1.1	-4.2	-1.1	0.9	-3.1
O=C(/C=C/c1ccccc1)NCc1ccco1	15.5%	-1.7	0.1	-0.8	2.4	0.9	-4.4
Cc1ccc(-c2cc(C(=O)N3CCCC(C(F)(F)F)C3)c3ccccc3n2)o1 (configuration not stated)	-11.5%	2.2	3.5	5.6	5.5	3.3	0.3
CN(Cc1ccco1)S(=O)(=O)c1nnc(NC(=O)c2ccccc2)s1	13.9%	0.1	0.9	-1.9	-1.6	28.9	7.5
COc1ccc(/C=C(/NC(=O)c2ccco2)C(=O)NCc2ccco2)cc1OC	6.4%	-5.9	4.3	-2.5	0.4	-7.3	1.1
CCN1CCc2c(sc(NC(=S)NC(=O)c3ccco3)c2C(N)=O)C1	-52.5%	4.1	163.2*	-21.9	12.3	-21.1	-2.0
COCCn1c(N)c(N(Cc2ccccc2)C(=O)c2oc3ccccc3c2C)c(=O)[nH]c1=O	-8.2%	-1.6	2.3	0.5	-3.0	-24.2	9.8

Assay outcomes as filed in PubChem BioAssay.
